# Assay outcomes (PubChem)
# gsp ag: qHTS for Agonist of gsp, the Etiologic Mutation Responsible for Fibrous Dysplasia/McCune-Albright Syndrome: qHTS; gsp mutant cells, cAMP HTRF, 30 min; control for the full effect not named in the record; 340,000 tested, 0.13% active; Potency, µM (titrated, usually from 76.9 µM), for inactives: at the highest dose activation (cAMP increase), most hits filed as activators; active = well fitted activation curve with a large enough effect; inconclusive = small, poorly fitted or top-dose-only effect, or another doubt; inactive = no such curve, though single readings can be large or run the other way; cell line not stated here;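 further: phosphodiesterase inhibitor Ro 20-1724 added with compounds to block cAMP breakdown; potency means the concentration at half of the fitted maximal effect; nearly all actives have a fitted effect of over 60% in size; about a fifth of the inactives were tested at one dose only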
#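 Cells stably selected in G418 were plated at 2000/well, grown 16-24 hr, then given compounds in DMSO with the PDE inhibitor […] (300 uM solution added) for 30 min at 37C; cAMP was read by HTRF.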
# Sfp PPTase inh: qHTS Assay for Inhibitors of Bacillus subtilis Sfp phosphopantetheinyl transferase (PPTase); 4'-phosphopantetheinyl transferase ffp (Bacillus subtilis), Q9F4F7; Biochemical Sfp PPTase activity, qHTS; Potency, µM, without a hit: max response, negative = inhibition, actives largely listed as inhibitors; 310,000 tested, 3.5% active; active means well fitted inhibition curve with a large enough effect; inconclusive means small, poorly fitted or top-dose-only effect, or another doubt; inactive means no such curve, though single readings can be large or run the other way;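 further: the enzyme is Sfp with the accession as filed and its product quenches rhodamine fluorescence; potency means the concentration at half of the fitted maximal effect; 0% = enzyme reaction without inhibitor and -100% = no enzyme wells; top concentration of the series not given in the record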
#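 Step 1, compound plus 15 nM Sfp-PPTase, 15 min, room temperature. Step 2, add rhodamine-CoA (5 uM) and BHQ-2-YbbR (12.5 uM). Step 3, read 525/598 nm fluorescence at 0 and 30 min.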
# Menin MLL FP FL: qHTS Assay for Inhibitors Targeting the Menin-MLL Interaction in MLL Related Leukemias: Competition With Fluorescein Labeled MLL-derived Peptide | FP activity change, % at 61.4 µM | AID 1766, 2009 | Fluorescence polarization, fluorescein-MLL peptide displacement from menin | 290,000 tested, under 10 active; inconclusive = falling polarisation curve, or a change in total fluorescence; inactive = total fluorescence flat and polarisation flat or rising; no compound was filed as active; the % refers to the polarisation; negative = inhibition;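 further: % of control where 0% means no effect; inhibitors lower the polarisation; unlabelled MLL peptide was the positive control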
# TRPV1 PAM: HTS Assay for Compounds that Act as Potentiators of the Vanilloid Receptor 1; Transient receptor potential cation channel subfamily V member 1 (Homo sapiens), Q8NER1; TRPV1-expressing cells, Fluo-8 calcium influx, capsaicin EC20 potentiation; host cell line not named in the record; control for the full effect not named in the record; potentiation, % at 8.33 µM; 320,000 tested, 0.02% active; active means potentiation above 80%; inconclusive means 30% to 80%; inactive means below 30%; further: 0% is about no effect
# Target sequence (Q8NER1 whole entry, looked up): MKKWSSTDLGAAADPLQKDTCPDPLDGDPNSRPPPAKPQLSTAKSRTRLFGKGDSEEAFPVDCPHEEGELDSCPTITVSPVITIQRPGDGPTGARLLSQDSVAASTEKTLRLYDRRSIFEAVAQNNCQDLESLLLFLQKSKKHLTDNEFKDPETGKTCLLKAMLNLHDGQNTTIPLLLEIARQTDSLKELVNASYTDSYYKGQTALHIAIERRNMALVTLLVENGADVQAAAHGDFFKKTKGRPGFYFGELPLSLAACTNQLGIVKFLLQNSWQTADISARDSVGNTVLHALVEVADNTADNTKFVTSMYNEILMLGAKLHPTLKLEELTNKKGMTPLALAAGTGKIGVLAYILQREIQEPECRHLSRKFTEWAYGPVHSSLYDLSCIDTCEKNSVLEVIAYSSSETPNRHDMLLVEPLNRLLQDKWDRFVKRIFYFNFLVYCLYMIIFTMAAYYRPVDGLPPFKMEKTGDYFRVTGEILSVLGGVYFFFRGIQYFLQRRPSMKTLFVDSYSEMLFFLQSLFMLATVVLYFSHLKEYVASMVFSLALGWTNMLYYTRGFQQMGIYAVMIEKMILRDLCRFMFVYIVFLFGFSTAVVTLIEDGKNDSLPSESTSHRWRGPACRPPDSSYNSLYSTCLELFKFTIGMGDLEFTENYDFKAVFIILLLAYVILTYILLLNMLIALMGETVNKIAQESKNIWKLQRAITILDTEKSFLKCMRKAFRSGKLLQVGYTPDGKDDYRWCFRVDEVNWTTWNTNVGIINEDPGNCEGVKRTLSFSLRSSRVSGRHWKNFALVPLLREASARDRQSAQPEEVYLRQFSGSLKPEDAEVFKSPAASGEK
#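 Cells expressing TRPV1 were dye-loaded with Fluo-8 and read kinetically: 10 s baseline, 3 min after compound (agonist portion), then 2 min after EC20 capsaicin (allosteric enhancer portion). Calcium-bound dye fluorescence at 480/520 nm.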
# gsp antag: qHTS for Antagonists of gsp, the Etiologic Mutation Responsible for Fibrous Dysplasia/McCune-Albright Syndrome: qHTS. gsp-mutant cells, cAMP HTRF, 30 min; control for the full effect not named in the record. Potency, µM (titrated, usually from 76.9 µM), for inactives: at the top dose activity change, negative = inhibition, most hits filed as inhibitors. 340,000 tested, 0.4% active. AID 624288, 2012; active = falling curve of any shape with a large fitted effect; inconclusive = falling curve, mostly with a smaller effect; inactive = flat or rising curve; cell line not stated here;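 further: intracellular cAMP measured with PDE inhibitor Ro 20-1724 present during compound exposure; potency means the concentration at half of the fitted maximal effect; on the % scale 0 is the no-effect control and ±100 the full control effect; nearly all actives have a fitted effect of over 65% in size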
#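 Cells in G418 medium, seeded 16-24 h, 37C; buffer exchange to DPBS + 1 mM CaCl2, 0.5 mM MgCl2, 0.05% BSA; cpds in DMSO + […] (300 uM stock), 30 min 37C; HTRF cAMP detection.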
# TRPML1 inh: qHTS for Inhibitors of the Human Mucolipin Transient Receptor Potential 1 (TRPML1). Mucolipin-1 (Homo sapiens), Q9GZU1. AID 624415, 2012. activity change, negative = inhibition, % (no concentration beside the values). TRPML1-inducible cells, Ca2+ dye fluorescence, FDSS; stronger effect = lower value; inhibition of EC80 agonist-evoked calcium signal. 390,000 tested, 0.02% active; in the data active means activity change below about -50%; inconclusive means about -30% to -50%; inactive means above about -30%;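 further: stimulus is agonist 54-4 at its EC80 concentration; on the % scale 0 is the no-effect control and ±100 the full control effect; compound concentration not given in the record; the text of the record puts the active cut at -80%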
#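 Calcium fluorescence in TRPML1-DL cells induced overnight with Tet: a 110 s read after compound pin addition, then a 110 s antagonist read after challenge with 54-4 at 4 uM final (EC80).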
# ClpP mod: qHTS Assay for Activators of ClpP. ATP-dependent Clp protease proteolytic subunit (Bacillus subtilis (strain 168)), P80244. purified B. subtilis ClpP, FRET peptide cleavage, 20 min. Potency, µM (titrated, usually from 57.5 µM), inactives show top-dose activity change, negative = active. 340,000 tested, 1.9% active; active = well fitted falling curve with a large enough effect; inconclusive = small, poorly fitted or top-dose-only effect; inactive = no such curve, though single readings can be large or run the other way; further: potency means the concentration at half of the fitted maximal effect; the source files actives as falling curves though it sought activators and does not explain the sign; nearly all actives have a fitted effect of over 65% in size; many hits overshoot -100%
# Target sequence (P80244 whole entry, looked up): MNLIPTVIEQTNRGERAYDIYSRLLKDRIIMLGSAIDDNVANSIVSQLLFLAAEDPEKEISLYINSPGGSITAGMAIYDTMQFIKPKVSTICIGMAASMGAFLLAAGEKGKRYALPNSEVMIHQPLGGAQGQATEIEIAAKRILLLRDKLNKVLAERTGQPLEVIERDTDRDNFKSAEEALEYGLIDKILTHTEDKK
#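 Buffer: 100 mM Tris/HCl pH8, 100 mM KCl, 0.05% low protease BSA, 2.5% glycerol, 0.01% Tween-20. ClpP 10 microg/mL final; 20 min RT; delta FRET normalized to ADEP and DMSO controls.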
# * marks the source's active call; other numbers are inactive results; ? = inconclusive; . = no result given; [ ] = dose if it differs, or a comment.
SMILES,gsp ag,Sfp PPTase inh,Menin MLL FP FL,TRPV1 PAM,gsp antag,TRPML1 inh,ClpP mod
OCCC1CN(Cc2nc3c(s2)CCCC3)CCN1Cc1ccccc1 (stereo not given),-9%,2%,-0.4,14,0%,-9,-2.0%
O=C1CSC(c2ccco2)N1 (stereo not given),6%,-3%,0.3,6,8%,10,0.7%
CC1(C)Nc2ccccc2C(=O)N1NS(=O)(=O)c1ccccc1,-4%,15%,0.3,10,11%,-7,-2.7%
O=C(NC1CC1)c1ccc(S(=O)(=O)NCC2CCCCC2)cc1,-24%,14%,-0.6,-25,8%,11,1.2%
CCc1c(C)c2cc(Cl)c(O)c(CN(CC)CC)c2oc1=O,?,10%,3.9,6,-13%,-6,-42%
O=C(Nc1cccc([N+](=O)[O-])c1)c1ccc2ccccc2c1O,?,7%,-3.2,-11,-9%,22,.
COC(=O)[C@@]1(Cc2ccccc2)[C@H]2C(=O)N(C)C(=O)[C@H]2[C@H]2CN=C(SC)N21,.,.,.,.,-4%,-18,1.5%
COc1ccccc1Nc1ccc(NC(=O)c2cccc([N+](=O)[O-])c2C)cc1,-18%,19%,-2.9,3,-19%,16,-4.9%
COc1cc(OC)cc(-c2c(C#Cc3ccsc3)c3cc(-c4cc(F)cc(F)c4)ccc3n2C)c1,16%,.,.,.,8%,-6,4.4%
Cc1cc(OCC(=O)NCc2ccccn2)c2c(C)c(Cc3ccccc3)c(=O)oc2c1,?,4%,-6.0,-17,?,24,3.9%
CSc1ccc(CN2CCC(C(=O)NCc3ccc(C)cc3)CC2)cc1,10%,56µM*,3.2,17,3%,-10,1.1%
NC(=O)C1CCN(C(=O)c2cn(-c3ccccc3)nc2-c2cccnc2)CC1,0%,.,.,7,13%,6,-5.3%

# Single records, from the list above:
# CSc1ccc(CN2CCC(C(=O)NCc3ccc(C)cc3)CC2)cc1 is entered as gsp ag = 10%; Sfp PPTase inh = 56µM*; Menin MLL FP FL = 3.2; TRPV1 PAM = 17; gsp antag = 3%; TRPML1 inh = -10; ClpP mod = 1.1%
# O=C1CSC(c2ccco2)N1 (stereo not given) is entered as gsp ag = 6%; Sfp PPTase inh = -3%; Menin MLL FP FL = 0.3; TRPV1 PAM = 6; gsp antag = 8%; TRPML1 inh = 10; ClpP mod = 0.7%

# (listing goes on)
SMILES,gsp ag,Sfp PPTase inh,Menin MLL FP FL,TRPV1 PAM,gsp antag,TRPML1 inh,ClpP mod
O=C(Nc1ccccc1Cl)NC1(C(=O)NCc2ccncc2)CCCCC1,?,19%,6.2,-3,7%,-6,.
O=C(O)C1CCCCC1C(=O)Nc1nc(-c2ccc(Cl)s2)cs1 (stereo not given),14%,22µM*,8.5,-2,-6%,-26,.
Cc1cccc(N(C(=O)c2csnn2)C(C(=O)NCc2ccccc2)c2ccc(C)o2)c1 (stereo not given),?,7%,3.5,-10,?,3,.
COc1ccc(C(=O)COC(=O)CN2C(=O)NC3(CC(C)CC(C)(C)C3)C2=O)c(OC)c1 (stereo not given),?,.,.,-17,9%,-1,2.8%
Cc1ccc(S(=O)(=O)NC(Cc2ccccc2)C(=O)O)cc1C (stereo not given),-4%[15.4 µM],11%,0.4,28,8%,5,-0.1%
CC(C)Sc1nc(N)nc2c1ncn2C1OC(CO)C(O)C1O (stereo not given),-42%[inhibitor],.,.,.,6%,-2,.
CCCCN(CCCNC(=O)CN1C(=O)COc2ccccc21)c1ccccc1,-29%,6%,2.0,10,-10%,1,-1.6%
Cc1cc(C(=O)N(Cc2nnc(-c3ccc(Cl)cc3)o2)C(C)C)c2ccccc2n1,2%,.,.,12,-14%,-5,-11%
Cc1[nH]c2ccccc2c1C(=O)COC(=O)c1ccc2c(=O)n3c(nc2c1)CCC3,-24%,9%,7.4,10,-15%,6,-4.4%
COc1ccc(C)cc1NC(=O)CSc1nnc(CC(=O)Nc2cccc(C(F)(F)F)c2)n1C,-1%,13%,3.2,1,-12%,7,1.5%
Cc1cc(O)cc(=O)n1C,?,12%,1.1,-24,4%,-7,.
Cc1ccc(C)c(NC(=O)CN(C)C(=O)c2ccc(Cl)nc2)c1,?,11%,3.0,3,-1%,-6,.

# Quoted at random: 2 entries already listed, in no set order.
SMILES,gsp ag,Sfp PPTase inh,Menin MLL FP FL,TRPV1 PAM,gsp antag,TRPML1 inh,ClpP mod
NC(=O)C1CCN(C(=O)c2cn(-c3ccccc3)nc2-c2cccnc2)CC1,0%,.,.,7,13%,6,-5.3%
O=C(Nc1ccccc1Cl)NC1(C(=O)NCc2ccncc2)CCCCC1,?,19%,6.2,-3,7%,-6,.

# The results go on:
SMILES,gsp ag,Sfp PPTase inh,Menin MLL FP FL,TRPV1 PAM,gsp antag,TRPML1 inh,ClpP mod
CCc1c(C)[nH]n(CCC#N)c1=O,-1%,2%,0.5,4,9%,5,-24%
Cc1ccc(S(=O)(=O)N2CCN(C(=O)CN3CCN(c4ccc(O)cc4)CC3)CC2)cc1,-5%,.,.,.,-15%,25,-4.9%
O=C(c1ccccc1NS(=O)(=O)c1ccc(F)cc1)N1CCOCC1,16%[15.4 µM],13%,-0.6,6,10%,10,-1.7%
CC(=O)CSc1nsc(SCC(C)=O)c1C#N,19%,-15%,3.0,10,-23%,-6,-0.4%
CCOc1ccc(S(=O)(=O)N(CC)CC(=O)NCc2ccccn2)cc1C,1%[15.4 µM],8%,0.0,4,-10%,29,0.8%
CC(O)CNC(=S)Nc1ccccc1 (stereo not given),2%[15.4 µM],30%,-4.6,0,-2%,-10,0.4%
c1ccc(-c2ccc(OCCN3CCOCC3)cc2)cc1,-4%,-2%,-3.1,-8,-3%,8,-1.1%
Cc1ccc(S(=O)(=O)Nc2c(C)n(C)n(-c3ccccc3)c2=O)cc1C(=O)OCC(=O)N1CCCC(C)C1 (stereo not given),-29%,15%,-1.5,4,-5%,-22,.
CC(=O)c1cccc(NC(=O)Cc2ccc3c(c2)CCCC3)c1,25%,-25%,10.0,-11,-23%,6,1.3%
Cc1cccc(NS(=O)(=O)c2c(C)noc2C)c1,-30%,15%,-4.2,4,1%,?,.
CCCN(CC(=O)Nc1ccccc1C)C(=O)c1ccc(Cl)c(S(=O)(=O)N2CCCC2)c1,-21%[15.4 µM],.,.,-16,-3%,-9,.
Cc1ccc2c(C)c(C(=O)N(Cc3ccc(N(C)C)cc3)C3CCS(=O)(=O)C3)oc2c1 (stereo not given),-10%,-18%,-1.7,13,?,5,0.5%
Cc1ccc(N2CC(C(=O)NC3=NCCS3)CC2=O)cc1C (stereo not given),-15%,4%,-0.2,11,-1%,-11,-1.3%
Cc1ccc(S(=O)(=O)N2CCC(C(=O)N(C)C3CCS(=O)(=O)C3)CC2)cc1 (stereo not given),14%,9%,0.7,-5,14%,-9,-1.0%
Oc1cccc(Nc2ncnc3c2oc2ccccc23)c1,-31%[inhibitor],-8%,-2.5,24,6%,15,-2.6%
Cc1ccc([N+](=O)[O-])cc1NC(=O)c1cccs1,-5%,10%,-2.6,0,9%,6,-2.5%
Cn1c(N2CCOCC2)c(/C=N/OC(=O)c2ccc(F)cc2)c2ccccc21,-30%,2%,-1.8,-9,?,-3,-13%
NNC(=O)Cn1c2ccccc2c2ccccc21,10%[15.4 µM],15%,-2.0,.,11%,4,.
CCn1c(C(=O)NCc2cccnc2)cc2sc(Cl)cc21,?,-14%,-1.7,-8,2%,-4,-0.6%
Cc1csc(=O)n1CC(=O)OCC(=O)NCc1ccccc1,-2%[15.4 µM],.,.,-3,5%,-8,-2.9%
Cc1ccc(NS(=O)(=O)c2ccc(C(=O)OCC(=O)N3CCCCC3)cc2)cc1,27%,.,.,-1,2%,-10,0.5%
C[N+](C)(CCOc1ccccc1)Cc1ccccc1,.,.,.,.,-8%,-6,1.4%
COc1ccc(N2CCN(CC(O)COC(c3ccc(F)cc3)c3ccc(F)cc3)CC2)cc1 (stereo not given),-37%[inhibitor],?,-14,26,1%,-13,-1.7%
CN(Cc1ccc(-n2cccn2)cc1)Cc1nc(-c2cnccn2)no1,?,21%,6.5,0,2%,3,.
COc1ccc(OC)c(S(=O)(=O)NCCOC23CC4CC(CC(C4)C2)C3)c1,-10%,13%,7.0,-11,2%,34,-2.4%
O=C(NCC1CCN(Cc2ccc(F)cc2)CC1)Nc1cc(F)ccc1F,-3%,12%,1.8,-17,9%,-2,0.1%
COc1ccc(N(CC(=O)Nc2cccc3ccccc23)S(C)(=O)=O)c(OC)c1,-5%,10%,-0.2,-4,-8%,2,0.3%
COc1cc(OC)cc(C(=O)NC(=S)NNC(=O)c2cnccn2)c1,3%[15.4 µM],10%,0.0,16,8%,-4,0.7%
CN1CCN(S(=O)(=O)c2ccc(C(=O)Nc3ccccc3)cc2)CC1,2%,8%,1.1,16,5%,-4,1.4%
O=C(O)c1ccc(CSc2nnc(-c3ccncc3)n2CC2CCCO2)cc1 (stereo not given),-16%,17%,3.5,16,5%,-6,0.9%
CCOCCCNC(=O)c1ccc(OC)cc1,16%,17%,4.8,-1,14%,-5,0.5%
COCCCn1c(SCC(=O)NC2CCCC2)nnc1-c1ccncc1,-9%[15.4 µM],19%,3.3,5,3%,-1,.
Cc1c(NC(=O)C2CC(c3ccc(F)cc3)=NO2)c(=O)n(-c2ccccc2)n1C (stereo not given),-16%,-3%,-2.5,11,10%,-3,-0.3%
O=C(CNC(=O)c1ccc(Br)o1)NNC(=O)c1ccccc1O,1%,.,.,-2,-1%,16,4.2%
Cc1noc(C)c1C(=O)OCC(=O)C12CC3CC(CC(C3)C1)C2,1%,18%,-1.0,-7,10%,7,1.0%
